# Beta2AR agonist: agonists of human beta-2 adrenergic receptor inducing internalization; 340,000 compounds, 0.43% hits; P07550; Am2.2-beta2AR cells, FAP receptor internalization, flow cytometry; reference of the scale not given here; response, % (no concentration beside the values);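 active means response above a set limit, near 3 SD of response in nonfluorescent compounds, cut at about 42% in these data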;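 further: stock transfer was 100 nL into about 11 µL; a reference agonist was the positive control; negative values mostly stem from fluorescent compounds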
# Target sequence (P07550 whole entry, looked up): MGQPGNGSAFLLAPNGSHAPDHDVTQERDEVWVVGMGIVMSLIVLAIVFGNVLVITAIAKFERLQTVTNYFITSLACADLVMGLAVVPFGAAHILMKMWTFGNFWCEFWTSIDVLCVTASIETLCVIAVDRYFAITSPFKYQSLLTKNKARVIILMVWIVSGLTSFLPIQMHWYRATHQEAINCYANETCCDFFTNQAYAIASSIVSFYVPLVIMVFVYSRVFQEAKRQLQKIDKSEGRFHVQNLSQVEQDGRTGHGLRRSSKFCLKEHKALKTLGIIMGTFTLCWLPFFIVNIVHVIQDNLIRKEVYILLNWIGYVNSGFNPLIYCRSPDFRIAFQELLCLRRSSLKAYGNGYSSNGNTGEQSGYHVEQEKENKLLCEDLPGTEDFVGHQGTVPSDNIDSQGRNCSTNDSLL
# Bfl-1 A1 inh: inhibitors of the anti-apoptotic protein A1, read as caspase activation. AID 2462. caspase activation, % (concentration not given with the values). MEF A1-2A-BIM cells, Caspase-Glo 3/7 luminescence, 3 h; percent of clofoctol response, vehicle zero. 330,000 compounds, 0.066% hits;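 active means over half of replicate activation scores above 10%, or exactly half above 10 with the replicate mean above 10; inconclusive means replicate mean below 10 yet half the replicates above 10; inactive means over half of replicates below 10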;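 further: wells of about 30 µL received 50 nL stock; many hits fall short of the cut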
# T cruzi repl: blocks replication of Trypanosoma cruzi; 300,000 compounds, 1.4% hits; T. cruzi beta-gal in NIH3T3, luminescence, 90 h; inhibition, % (no concentration beside the values);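 active means mean inhibition across valid replicates above about 55%, limit read from the data; inconclusive means mean below that limit but half or more replicates reach it; inactive means mean below it, under half of replicates reach it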;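 further: signal also drops with host cell toxicity which is not excluded here; 0% = plate median of DMSO wells and 100% = zero luminescence signal; higher percent means less beta-gal luminescence so fewer parasites; stock transfer was 50 nL into about 50 µL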
# Ecoli rRNA inh: inhibitors of bacterial rRNA selective over humanized ribosomes; GFP signal change (wild-type ribosome), % (concentration not given with the values); E. coli WT GFP vs humanized-ribosome RFP mutants, fluorescence, 24 h; active compounds read low; DMSO median 0, no signal -100; 350,000 compounds, 1.6% hits; AID 720706;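 active means significant combined selectivity score with lowered wild-type GFP, culture density cut under 30%, mutant RFP and density less affected; inactive means any of these conditions unmet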; further: one replicate is shown; some compounds called inactive have numbers as strong as hits
# Calb FLC: affects C. albicans growth with fluconazole | 300,000 compounds, 0.57% hits | AID 1979 | C. albicans CaCi-2 (fluconazole-resistant clinical isolate) + fluconazole, Alamar Blue growth, 48 h | growth inhibition, % (no concentration beside the values);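 active means most replicates above 75%; inconclusive means exactly half above 75%; inactive means most below 75%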;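 further: all wells also contain fluconazole at 8 µg/ml as a sub-toxic cotreatment; 0% = median of DMSO wells and 100% = median of geldanamycin control wells; wells of about 8 µL received 7.5 nL stock; the first replicate is given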
# ALR inh: inhibitors of human sulfhydryl oxidase ALR; 290,000 compounds, 3.8% hits; P55789; purified ALR, DTT oxidation, H2O2 HRP-luminol luminescence; inhibition, % (no concentration beside the values); AID 485317;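 active means mean and each replicate at 75% or more; inconclusive means only one of the two met; inactive means neither met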;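 further: stock transfer was 7.5 nL into about 7.5 µL; 0% = neutral wells and 100% = wells with inactivated enzyme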
# Target sequence (P55789 whole entry, looked up): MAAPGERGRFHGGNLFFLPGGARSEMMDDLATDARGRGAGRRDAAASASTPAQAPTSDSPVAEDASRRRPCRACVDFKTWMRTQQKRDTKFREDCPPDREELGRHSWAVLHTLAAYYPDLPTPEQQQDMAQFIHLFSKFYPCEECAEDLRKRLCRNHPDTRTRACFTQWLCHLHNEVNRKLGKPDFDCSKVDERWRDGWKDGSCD
# Beta apoptosis: blocks beta cell apoptosis | INS-1E cytokine-induced death, ATP luminescence, 48 h; percent of positive-control rescue, neutral wells zero | protection from apoptosis, % (no concentration beside the values) | 300,000 compounds, 0.8% hits | AID 435005;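 active means all replicates at 75% or more, or half of them and the mean; inconclusive means half reach 75% but not the mean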;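 further: 0% = cytokine-treated negative control wells and 100% = positive control rescue; higher means more ATP so stronger rescue from cytokine killing; wells of about 40 µL received 100 nL stock; the first replicate is given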
# LANA-H2B inh: blocks KSHV LANA binding to histone H2A/H2B; 320,000 compounds, 0.6% hits; inhibition, % (no concentration beside the values); AID 2629; cell-free LANA-H2A/H2B peptide, fluorescence polarization; in the data active means inhibition mostly above about 10%, no sharp cut-off; inactive means mostly below about 6.7%;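 further: stock transfer was 7.5 nL into about 10 µL; 0% = median of vehicle wells and 100% = median of positive control wells; one replicate is shown; the record names a cut of 25% in any replicate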
# Ecoli rRNA inh OD600: recorded beside Ecoli rRNA inh, whose call it bears; OD600 change, %; measured here: OD600 growth;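 optical density of the mix in the first replicate; 0 = DMSO median and -100 = no signal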
# Ecoli rRNA inh RFP: recorded beside Ecoli rRNA inh, whose call it bears; RFP signal change, %; measured here: RFP humanized mutant strains;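 first replicate; 0 = DMSO median and -100 = no signal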
# * hit, by the source's call; u = inconclusive; x = no result given. Only part of the results is shown; the hit share may differ from the screen's.
structure	Ecoli rRNA inh	Beta apoptosis	ALR inh	Beta2AR agonist	LANA-H2B inh	Ecoli rRNA inh OD600	Ecoli rRNA inh RFP	Bfl-1 A1 inh	T cruzi repl	Calb FLC
COc1cc(N2Cc3ccccc3C2)ccc1C=O	18	1	26	18	9.5	12	4.7	0.0	-3	0
COC(=O)c1ccccc1NC(=O)COC(=O)c1ccco1	x	-5	x	2	2.7	x	x	0.5	2	-1
CCC12CN(S(=O)(=O)c3ccc(C)cc3)CC(CC)(CN(S(=O)(=O)c3ccc(C)cc3)C1)C2=O	x	8	-1	4	0.6	x	x	0.5	32	-4
O=C1C(NS(=O)(=O)c2cccs2)=C(N2CCN(c3cccc(Cl)c3)CC2)C(=O)c2ccccc21	x	6	-25	-2	6.8	x	x	0.0	35	25
Clc1ccccc1-c1nnc2sc(-c3ccc(Br)o3)nn12	x	-11	-6	-13	-2.9	x	x	u	9	4
CC(=O)N(CCN(C(C)=O)c1ccccc1)c1ccccc1	x	-1	9	-1	2.4	x	x	1.2	-15	3
O=C(NCCc1ccccc1)c1ccc2c(c1)OCCO2	x	3	-8	-1	-4.5	x	x	-6.2	-6	-23
COc1ccc(/C=C/C(=O)Oc2cc(C)[nH]c(=O)c2[N+](=O)[O-])cc1OC	0	-8	-1	15	-2.2	5	1.5	1.7	-25	11
COCCn1c(COc2cccc(OC)c2)nnc1SCC(=O)N1CCOCC1	x	-3	0	-2	0.6	x	x	-0.8	3	1
CCOC(=O)c1c(C)[nH]c(C(=O)COC(=O)COc2ccccc2C)c1C	10	-12	3	-4	5.8	15	2.3	0.4	7	22
Cc1ccc(/C=C/C(=O)O)cc1S(=O)(=O)N1CCC(Cc2ccccc2)CC1	10	-1	4	4	2.4	7	-2.1	0.9	-10	-3
Cc1cc(C)cc(NC(=O)CCOc2ccccc2)c1	6	-3	-9	-9	-1.0	12	-5.5	-1.7	2	-4
COC(=O)CCC(=O)OC1(C)C(=O)C=C2C=C(C3CC3)N(c3ccccc3)C=C2C1=O (configuration not stated)	-8	-4	-5	4	-1.8	-18	10	-0.1	15	1
Cc1ccc(C(=O)N/C(=C/c2ccc(Cl)cc2)C(=O)NCC2CCCO2)cc1 (configuration not stated)	x	5	-7	0	11	x	x	0.1	1	-19
CC(c1ccccc1)c1nnc(N)s1 (configuration not stated)	14	0	-2	1	5.2	3	-3.2	-0.4	-14	2
CC1CCCN(C(=O)COC(=O)c2cc([N+](=O)[O-])ccc2N2CCOCC2)C1 (configuration not stated)	-1	4	9	-13	1.2	7	0.6	-0.3	2	-12
Cc1onc(-c2c(F)cccc2Cl)c1C(=O)Nc1ccccc1N1CCOCC1	-28*	-6	x	3	-5.6	-17*	-2.8*	0.5	19	3
COc1ccc(CNc2ncnc3c2[nH]c2ccccc23)cc1	-55*	43	-5	4	-3.4	-36*	-16*	0.0	6	3
O=C(Nc1cc(Cl)cc(Cl)c1)c1ccc(Cn2c(=O)[nH]c3ccsc3c2=O)cc1	x	50	0	-5	-3.1	x	x	0.2	-9	9
O=S(=O)(c1ccc(SCCOc2ccccc2)nc1)N1CCCC1	0	1	2	1	0.8	-16	-1.4	0.2	x	x

# Compounds above with a halogen:
structure	Ecoli rRNA inh	Beta apoptosis	ALR inh	Beta2AR agonist	LANA-H2B inh	Ecoli rRNA inh OD600	Ecoli rRNA inh RFP	Bfl-1 A1 inh	T cruzi repl	Calb FLC
O=C1C(NS(=O)(=O)c2cccs2)=C(N2CCN(c3cccc(Cl)c3)CC2)C(=O)c2ccccc21	x	6	-25	-2	6.8	x	x	0.0	35	25
Clc1ccccc1-c1nnc2sc(-c3ccc(Br)o3)nn12	x	-11	-6	-13	-2.9	x	x	u	9	4
Cc1ccc(C(=O)N/C(=C/c2ccc(Cl)cc2)C(=O)NCC2CCCO2)cc1 (configuration not stated)	x	5	-7	0	11	x	x	0.1	1	-19
Cc1onc(-c2c(F)cccc2Cl)c1C(=O)Nc1ccccc1N1CCOCC1	-28*	-6	x	3	-5.6	-17*	-2.8*	0.5	19	3
O=C(Nc1cc(Cl)cc(Cl)c1)c1ccc(Cn2c(=O)[nH]c3ccsc3c2=O)cc1	x	50	0	-5	-3.1	x	x	0.2	-9	9

# Later entries.
structure	Ecoli rRNA inh	Beta apoptosis	ALR inh	Beta2AR agonist	LANA-H2B inh	Ecoli rRNA inh OD600	Ecoli rRNA inh RFP	Bfl-1 A1 inh	T cruzi repl	Calb FLC
Cc1ccc(S(=O)(=O)NNC(=O)C2Cc3c(ccc4ccccc34)O2)cc1 (configuration not stated)	x	3	2	8	1.8	x	x	0.4	-12	5
CC(C)C(c1nnnn1C1CCCCC1)N1CCN(c2ncccn2)CC1 (configuration not stated)	x	-4	x	6	4.4	x	x	-0.5	0	-44
COC(=O)c1ccc(NC(=O)CSc2nnc(-c3cccnc3)o2)cc1	14	-3	99*	-2	0.4	10	3.3	0.5	-14	x
COc1cc(/C=C/C(=O)OCC(=O)N2c3ccccc3NC(=O)C2(C)C)cc(OC)c1OC	-9	4	x	26	0.8	-9	0.2	-0.2	x	x
CCCCc1c(C)[nH]c(C(=O)OCC)c1C	0	3	-7	3	-0.3	-2	-1.0	-1.7	-2	-6
COc1cccc(C(=O)Nc2cccc(SC)c2)c1	x	-1	x	4	-7.9	x	x	-11	-4	18
CS(=O)(=O)N(CC(=O)Nc1cc(Cl)ccc1Cl)c1ccccc1Cl	x	-6	-30	4	-2.3	x	x	0.4	14	-5
O=c1cc(-c2ccccc2)nc(N2CCCCC2)[nH]1	x	-5	x	0	-0.8	x	x	0.2	2	6
O=C(COc1ccc([N+](=O)[O-])cc1)NN=C1CCCC1	6	0	-2	1	1.5	0	4.3	-0.6	-2	-4
C=CCNC(=O)c1cc2c(=O)n3cccc(C)c3nc2s1	5	-3	-8	-16	-3.3	11	2.4	-2.6	-5	4
N#Cc1cc(C(=O)c2ccccc2OCC(=O)Nc2ccccc2)cn(C2CCCCC2)c1=O	0	-6	-13	9	11	4	-0.4	0.3	5	36
O=C(Cn1cnc2c(cnn2-c2ccccc2)c1=O)NCCc1ccccc1	x	7	-19	8	0.2	x	x	0.2	-26	-1
O=C(Nc1ccccn1)c1ccc2ccccc2n1	x	3	-1	2	0.7	x	x	1.0	-7	-1
C=CCOc1c(Br)cc(CNn2c(C)n[nH]c2=S)cc1OCC	-31*	-1	7	3	-0.4	-28*	-4.0*	-0.2	2	13
CC1CCCCN1C(=O)CSc1nnc(-c2cccnc2)o1 (configuration not stated)	4	-7	-21	5	-1.7	10	-1.0	-0.7	-4	5
CCCCNC(=O)COC(=O)c1cc(C)oc1C	14	-3	11	6	2.0	21	4.3	2.7	-7	2
O=S(=O)(NCC1(N2CCOCC2)CCCCC1)c1ccc(F)cc1	10	x	-3	-2	1.2	14	2.4	0.4	0	7
O=C(CN(Cc1ccccc1F)C(=O)Cn1nnc(-c2cccs2)n1)NCC1CCCO1 (configuration not stated)	9	x	0	-4	2.4	2	-0.6	0.1	-3	-4
Cc1cc(NC(=O)c2cccs2)cc(-c2nc3ncccc3o2)c1O	13	13	3	-19	0.4	10	1.9	-0.7	-5	5
c1csc(-c2nc(-c3ccc(-c4ccon4)s3)no2)c1	-2	2	-13	3	-1.1	6	0.0	-5.0	3	1

# The list continues:
structure	Ecoli rRNA inh	Beta apoptosis	ALR inh	Beta2AR agonist	LANA-H2B inh	Ecoli rRNA inh OD600	Ecoli rRNA inh RFP	Bfl-1 A1 inh	T cruzi repl	Calb FLC
CCC/C=C1/CCCOC(C(=O)NCc2ccccc2)(C(F)(F)F)C1 (configuration not stated)	-1	-6	5	3	0.2	-10	-4.5	-1.2	-8	-3
COCn1c(COc2ccc3ccccc3c2)nc2ccccc21	x	-1	-11	-4	-0.7	x	x	-1.1	19	u
COc1cccc(OCC(=O)Nc2ccccc2C(=O)Nc2ccc(C(=O)O)cc2)c1	5	-4	7	-6	-8.2	1	1.4	-0.1	5	17
O=C(O)c1cccc(Cn2c(Cl)c(/C=N/NC(=O)c3cccc(O)c3)sc2=O)c1	4	1	2	-8	0.6	-1	-0.8	1.0	12	-6
COc1ccc(C2(O)CCN(C(=O)Cc3cccnc3)CC2)cc1	x	-3	-14	1	9.8	x	x	0.7	7	1
Cc1ccc(C(=O)OCC(=O)N(CC(C)C)c2c(N)n(Cc3ccccc3)c(=O)[nH]c2=O)o1	14	x	-1	2	-0.8	10	-1.9	1.1	-1	7
O=C(CN(c1ccccc1)S(=O)(=O)c1ccccc1)Nc1ccccc1C(=O)NCc1ccco1	x	6	-4	-1	-1.5	x	x	0.5	9	19
Cc1ccc(NC2=C(Cl)C(=O)OC2OC(=O)c2ccccc2)c(C)c1 (configuration not stated)	-41*	x	19	5	-6.3	-33*	-4.0*	-0.2	3	-7
Cc1ccc(OCC(O)CN2CCN(CC(O)COc3ccc(C)cc3)CC2)cc1 (configuration not stated)	x	-4	-11	4	-1.8	x	x	-0.3	-4	-1
Nc1ccccc1C(=O)NCCN1CCNC1=O	14	-2	-14	-3	0.6	1	0.1	0.8	-7	7
CC(=O)c1c(C)nn(CC(O)Cn2c3c(c4cc(C)ccc42)CCCC3=O)c1C (configuration not stated)	x	2	-20	-4	-4.1	x	x	0.8	x	x
CN1CCN(NC(=O)/C=C/c2ccc(C(C)(C)C)cc2)CC1	4	-2	12	2	-1.2	-4	1.0	0.7	45	9
O=C(O)c1cc(Cl)c2c(c1)OCO2	2	-3	x	-2	0.3	3	-2.6	0.6	-15	3
COc1ccc(CCNC(=O)CN2C(=O)NC(C)(c3ccc([N+](=O)[O-])cc3)C2=O)cc1 (configuration not stated)	5	-4	1	7	-2.1	9	6.4	0.8	-2	7
CC1CCCCN1CC(=O)NC(=O)NCc1ccccc1 (configuration not stated)	x	-11	-22	-11	-7.4	x	x	0.3	-1	-17
O=C(NCCN1CCOCC1)/C(=C\c1ccccc1Cl)NC(=O)c1ccccc1	7	-4	-7	-1	1.4	6	-0.7	-1.0	-7	13
COc1ccc(CCNC(=O)C(=O)NCc2ccc(C(C)C)cc2)cc1OC	x	-4	-10	-2	2.2	x	x	-0.3	-9	-6
Cc1nc(SCC(=O)N2CCCc3ccccc32)c2oc3ccccc3c2n1	-4	-1	-15	-3	1.5	1	-1.5	-0.1	21	4
COc1ccccc1NC(=O)N1CCN(c2cccc(C(F)(F)F)c2)CC1	-34	4	-4	2	-1.7	-56	-8.7	0.9	5	0
O=C(C[C@H]1C/C=C\CCCCC(=O)OC[C@H]2CCCN2C1=O)N[C@H](CO)Cc1ccccc1	4	3	-3	2	13	-1	-2.2	-0.6	x	x

# Source: PubChem BioAssay (several laboratories)
